Source: PubChem BioAssay
RN4220 kill = kills Staphylococcus aureus RN4220; hit rate 0.33% among 330,000; inhibition, % (no concentration beside the values); S. aureus RN4220 growth, OD600, 16 h;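 active = z-score of -3 or lower and OD600 up to 0.18 on both plates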;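 also: plate controls were untreated cells for no effect and reference antibiotic for full effect; stock transfer was 100 nL into about 80 µL; one replicate is shown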
BJeLR lethal = BJeLR cell viability loss; BJeLR (HRASV12) viability, CellTiter-Glo ATP luminescence, 48 h; reference of the scale not given here; inhibition, % (concentration not given with the values); hit rate 0.17% among 300,000; AID 1554;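 active = replicate mean above 50%; inconclusive = above 50% but judged a plate artefact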;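 also: 50 nL library stock added to about 25 µL; numbers are from one replicate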
PrP UTR inh = suppresses PrP 5' UTR mRNA reporter expression | cell-based PrP 5' UTR mRNA reporter, plate reader | inhibition, % (test concentration not listed) | hit rate 0.35% among 340,000 | AID 488862;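 active = every replicate at 50% or more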;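 also: 0 = median of the neutral control wells; tested in H4 reporter cells; numbers are from one replicate; inactives centre near -14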
ugtP null kill = compounds lethal to S. aureus RN4220 ugtP deletion mutant | growth inhibition, % (test concentration not listed) | AID 1259309 | hit rate 0.54% among 330,000 | OD600 growth, 16 h; some inactives read as strong as hits;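 active = z-score under -3 and OD600 up to 0.15 on both plates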;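 also: plate controls were untreated wells for no effect and antibiotic for full effect; wells of about 80 µL received 100 nL stock; the first replicate is given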
Mtb hypoxia rep = Mtb hypoxia fluorescent reporter inhibition; M. tuberculosis hypoxia-regulated fluorescent reporter, fluorescence; fluorescence inhibition, % (test concentration not listed); hit rate 0.1% among 300,000; AID 1159583;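 active = 35 to 45% if threefold the growth effect, above 45% if 1.5-fold the growth effect; inactive = the rest, general growth blockers included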;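 also: wells of about 50 µL received 100 nL stock; 0% = vehicle wells and 100% = reference inhibitor wells; whole bacteria with a GFP reporter of the hypoxia response; strong numbers were not always called active; many hits fall short of the cut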
Autofluor counter = counter-screen for toxin protease inhibitors: compound fluorescence; compound autofluorescence counterscreen, microsphere flow cytometry; hits give high values; fluorescence intensity (test concentration not listed); hit rate 3.1% among 360,000;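 active = at least 3 SD above the mean of all compounds, about 16000 in these data; inconclusive = too few beads counted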;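 also: 100 nL of 1 mM stock went into each well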
Mtb hypoxia rep growth = second read-out of Mtb hypoxia rep, no call of its own (marks repeat the call); growth inhibition, %; measured here: M. tuberculosis growth (absorbance);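 0% = vehicle and 100% = reference antibiotic; read after six days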
Numbers without * were called inactive; ? = inconclusive; . = no result given.

1. CCOc1ccccc1CNC(=O)CCc1cn(CC)c2ccccc12
2. O=C(CCNc1cccc(Cl)c1)c1cccs1
3. CC(=O)Nc1ccc(NC(=O)c2sc3nc4c(c(-c5ccc(C)cc5)c3c2N)CCC4)cc1
4. NS(=O)(=O)c1ccc(NC(=O)COC(=O)/C=C/c2ccc([N+](=O)[O-])cc2)cc1
5. CCOc1c(Br)cc(/C=C2\N=C(C)OC2=O)cc1Br
6. CNCCCOc1cccc(OC(C)C)c1
7. COCc1ccc(C(=O)NC2CC(C)(C)Cc3c2cnn3-c2ccc(C)cc2)o1 (configuration not stated)
8. CC(C)C(=O)c1cc2c(cc1NC(=O)c1ccccc1)OCCO2
9. CN1C2C(Br)CCCCN2c2ccc(F)cc2S1(=O)=O (configuration not stated)
10. COc1cccc(-c2c(C(=O)N/N=C(\C)c3ccc(Cl)s3)nnn2-c2nonc2N)c1

compound no.,1,2,3,4,5,6,7,8,9,10
Mtb hypoxia rep growth,-3,13,1,7,2,.,-23,-1,6,.
BJeLR lethal,-6,8,0,8,1,2,-1,-1,-3,-2
RN4220 kill,4.4,4.7,0.5,4.5,-1.0,.,4.7,-1.6,0.8,.
PrP UTR inh,-16,1,-17,-11,-6,-10,2,7,-13,-15
Mtb hypoxia rep,1,6,-11,4,-11,.,3,3,3,.
ugtP null kill,7,-1,-17,13,-3,.,12,5,14,.
Autofluor counter,3608,7965,5938,2515,4034,4752,.,23685*,3806,5093

11. C/C(=N/NC(=O)CN1CCN(Cc2ccccc2Cl)CC1)c1ccco1
12. O=C(NNS(=O)(=O)c1ccccc1)Nc1ccc(F)cc1
13. CCOC(=O)C(O)(c1ccc(NC(=O)NC2CCCCC2)cc1)C(F)(F)F (configuration not stated)
14. O=C(COc1ccc(S(=O)(=O)N2CCOCC2)cc1)N1CCN(c2ccccc2)CC1
15. O=C(c1ccc(S(=O)(=O)NCC2CCCO2)cc1)N1CCN(c2ccccc2F)CC1 (configuration not stated)
16. CN(Cc1cc2ccccc2[nH]c1=O)S(=O)(=O)c1ccccc1
17. O=C(CN(C(=O)c1csnn1)c1ccccc1)NCCc1ccccc1
18. OC(c1ccc(Cl)cc1)C(CN1CCOCC1)c1ccccc1 (configuration not stated)
19. O=C(CCN1CCN(CC(=O)Nc2ccccc2Cl)CC1)Nc1ccccc1F
20. CC(C)N(C(=O)Cn1cc(S(=O)(=O)CC(=O)NCc2ccc(F)cc2)c2ccccc21)C(C)C

compound no.,11,12,13,14,15,16,17,18,19,20
Mtb hypoxia rep growth,.,-1,3,-2,5,.,-5,5,.,3
BJeLR lethal,-3,0,2,5,4,3,-4,-11,9,7
RN4220 kill,.,1.2,22,1.9,7.7,8.7,0.4,0.1,5.1,3.1
PrP UTR inh,-15,-26,-39,-9,-4,-15,-20,-9,0,-4
Mtb hypoxia rep,.,-1,-2,-1,7,.,-2,5,.,-5
ugtP null kill,.,5,2,2,2,13,2,24,-3,4
Autofluor counter,3074,5120,23646*,5618,4208,2964,6188,3677,2089,6297

21. CCCc1nc2nc(C)c(NS(=O)(=O)c3ccc(F)cc3)c(=O)n2[nH]1
22. Cc1noc(C)c1S(=O)(=O)Nc1ccc2c(c1)CC(=O)N(C(C)CO)CC(C)C(CN(C)S(=O)(=O)c1ccc(F)cc1)O2 (configuration not stated)
23. COCCn1c(C)nnc1SCC(=O)NNC(=O)c1ccc(Br)cc1
24. COc1cccc2sc(N(CCCN(C)C)C(=O)c3ccc(S(=O)(=O)N4CCc5ccccc5C4)cc3)nc12
25. O=C(COc1ccc(Cl)cc1)NCc1nnc(SCC(=O)Nc2ccccc2)o1
26. O=C(C1CCCCC1)N1CCN(c2ncccn2)CC1
27. O=C(Nc1cccc(Cl)c1N1CCCC1)c1cccc(-c2cc3ccccc3oc2=O)c1
28. O=C(CN1CCN(c2ccc(F)cc2)CC1)Nc1ccccc1[N+](=O)[O-]
29. CCCCCN(C(=O)CCC(=O)OCC(=O)Nc1cccc(CC)c1)c1c(N)n(CCCC)c(=O)[nH]c1=O
30. CCOC(=O)c1[nH]c(C)c(C(=O)Nc2ccc3c(c2)CCC3)c1C

compound no.,21,22,23,24,25,26,27,28,29,30
Mtb hypoxia rep growth,6,10,-12,-7,.,12,6,17,1,.
BJeLR lethal,6,.,-10,1,-3,-2,4,11,-11,11
RN4220 kill,4.8,6.1,-0.4,-1.3,0.9,1.5,-2.0,2.0,6.6,3.6
PrP UTR inh,2,.,5,-5,-6,-18,-6,-13,-6,-23
Mtb hypoxia rep,-4,4,-5,2,.,-5,-1,16,1,.
ugtP null kill,2,5,4,7,6,-2,66,1,12,-4
Autofluor counter,3664,.,3571,5123,2862,2729,11512,3915,?,2500

31. O=C(O)c1cnn(-c2ccccc2)c1C(F)(F)F
32. Cc1ccc(S(=O)(=O)N2CCN(CC(=O)NC(=O)NCc3ccccc3)CC2)cc1C
33. COc1ccc(S(=O)(=O)N(CC(=O)NN=C2CCN(C)CC2)c2cc(Cl)ccc2OC)cc1OC
34. CCc1ccc(-c2csc(NC(=O)C3CC(=O)N(c4ccc5c(c4)OCCO5)C3)n2)cc1 (configuration not stated)
35. O=c1[nH]c(=O)n(Cc2ccco2)c(O)c1C=NCc1ccc2c(c1)OCO2
36. CSCCC1NC(=O)NC1=O (configuration not stated)
37. Cc1nc(N2CCN(C(=O)c3ccco3)CC2)nc2c1C(=O)CC(C)C2 (configuration not stated)
38. CN=c1sc2ccccc2n1CC(O)COc1ccccc1 (configuration not stated)
39. Cc1ccc(-c2noc(-c3ccccc3Br)n2)cc1
40. O=C(NCc1ccccc1Br)c1ccc2c(c1)OCCO2

compound no.,31,32,33,34,35,36,37,38,39,40
Mtb hypoxia rep growth,9,.,-3,-9,16,13,5,5,.,25
BJeLR lethal,-9,-7,-7,-11,-5,-2,3,.,-2,-4
RN4220 kill,3.5,4.9,-1.3,-10.0,5.7,-12,1.0,8.8,-0.9,21
PrP UTR inh,-20,-13,-36,-12,-20,.,-15,-2,-97,-17
Mtb hypoxia rep,9,.,1,-6,6,18,5,14,.,12
ugtP null kill,0,-2,-2,4,-3,-3,3,-2,37,16
Autofluor counter,4799,3972,4040,9549,22050*,.,5418,16100,2845,4037

41. Cc1oc(-c2ccccc2F)nc1CS(=O)(=O)CC(=O)N1CCN(c2ccccc2)CC1
42. CCOc1ccccc1/C=C(/NC(=O)c1ccccc1)C(=O)NCC(=O)O
43. Cc1ccc(-c2nnc(Nc3ccc(CC(N)=O)cc3)c3ccccc23)cc1S(=O)(=O)NCC1CCCO1 (configuration not stated)
44. COc1ccc(NC(=O)N2C[C@@H]3C[C@@H](C2)c2cccc(=O)n2C3)c(OC)c1
45. CC12CCC(C(=O)N/N=C/c3ccc(O)cc3O)(OC1=O)C2(C)C (configuration not stated)
46. Cc1ccc(CN2[C@@H](CC3CCCCC3)COCCS2(=O)=O)cc1
47. COc1cccc2cc(C(=O)Nc3ccc(S(=O)(=O)NCC4CCCO4)cc3)c(=O)oc12 (configuration not stated)
48. COc1cc2c(cc1OC)CN(CC(=O)Nc1ccc(S(=O)(=O)N3CCCC3)cc1)CC2
49. CN(C)S(=O)(=O)c1ccc(Cl)c(NC(=O)COC(=O)c2ccc3c(c2)NC(=O)CS3)c1
50. COc1ccc(N(CC(=O)NCc2cccs2)S(=O)(=O)c2ccc(F)cc2)cc1

compound no.,41,42,43,44,45,46,47,48,49,50
Mtb hypoxia rep growth,5,-5,2,.,.,.,-1,-8,1,4
BJeLR lethal,-4,4,2,-9,-5,3,14,13,-6,.
RN4220 kill,21,4.3,1.3,2.9,.,.,0.9,5.8,-0.6,8.7
PrP UTR inh,-28,-22,-9,-6,-13,-13,-17,1,-24,.
Mtb hypoxia rep,5,15,-4,.,.,.,4,0,-6,15
ugtP null kill,20,10,-1,-2,.,.,-9,9,-5,2
Autofluor counter,7105,1967,.,4236,4244,3636,24536*,4103,5424,.

51. COC(=O)c1nc(NC(=O)C(C)(C)C)n[nH]1
52. COc1cccc(NC(=O)c2sc3nc(N4CCOCC4)c4c(c3c2N)CCCC4)c1
53. CCCCOC(=O)c1ccc(NC(=O)C(=O)CC(=O)c2ccc(OC)cc2)cc1
54. COc1ccc(Cl)cc1NC(=O)C(C)NC(c1ccccc1)c1ccccc1 (configuration not stated)
55. CCN(CC)C(=S)Oc1c(Cl)cccc1Cl
56. CCn1cnc2cc(NC(=O)c3ccc(C)cc3)ccc21
57. O=C(Nc1nnc(-c2ccc(F)cc2)s1)C1CCN(S(=O)(=O)c2ccc(Cl)cc2)CC1
58. CCCC(=O)Nc1nnc(CC(=O)OCC)s1
59. O=C(O)c1nc(-c2ccccc2)n(-c2cccc(C(F)(F)F)c2)n1
60. Cc1cc(C)c(S(=O)(=O)n2c([N+](=O)[O-])cnc2C)c(C)c1

compound no.,51,52,53,54,55,56,57,58,59,60
Mtb hypoxia rep growth,6,-5,8,7,5,.,3,.,14,.
BJeLR lethal,-9,1,2,-13,-3,-10,0,1,16,-13
RN4220 kill,8.4,1.0,36,-9.1,5.4,.,6.5,2.8,-1.3,4.6
PrP UTR inh,-14,-44,-7,-11,-36,-70,2,0,-11,-12
Mtb hypoxia rep,18,8,11,13,-2,.,10,.,-4,.
ugtP null kill,11,-7,23,-12,10,.,2,6,0,9
Autofluor counter,10045,4435,3912,1961,6420,3073,2620,2071,3266,2400

Ordered by molecular weight (smallest number first): part of the list above
51. COC(=O)c1nc(NC(=O)C(C)(C)C)n[nH]1
8. CC(C)C(=O)c1cc2c(cc1NC(=O)c1ccccc1)OCCO2
18. OC(c1ccc(Cl)cc1)C(CN1CCOCC1)c1ccccc1 (configuration not stated)
1. CCOc1ccccc1CNC(=O)CCc1cn(CC)c2ccccc12
28. O=C(CN1CCN(c2ccc(F)cc2)CC1)Nc1ccccc1[N+](=O)[O-]
21. CCCc1nc2nc(C)c(NS(=O)(=O)c3ccc(F)cc3)c(=O)n2[nH]1
17. O=C(CN(C(=O)c1csnn1)c1ccccc1)NCCc1ccccc1
42. CCOc1ccccc1/C=C(/NC(=O)c1ccccc1)C(=O)NCC(=O)O
4. NS(=O)(=O)c1ccc(NC(=O)COC(=O)/C=C/c2ccc([N+](=O)[O-])cc2)cc1
15. O=C(c1ccc(S(=O)(=O)NCC2CCCO2)cc1)N1CCN(c2ccccc2F)CC1 (configuration not stated)
48. COc1cc2c(cc1OC)CN(CC(=O)Nc1ccc(S(=O)(=O)N3CCCC3)cc1)CC2
49. CN(C)S(=O)(=O)c1ccc(Cl)c(NC(=O)COC(=O)c2ccc3c(c2)NC(=O)CS3)c1

compound no.,51,8,18,1,28,21,17,42,4,15,48,49
Mtb hypoxia rep growth,6,-1,5,-3,17,6,-5,-5,7,5,-8,1
BJeLR lethal,-9,-1,-11,-6,11,6,-4,4,8,4,13,-6
RN4220 kill,8.4,-1.6,0.1,4.4,2.0,4.8,0.4,4.3,4.5,7.7,5.8,-0.6
PrP UTR inh,-14,7,-9,-16,-13,2,-20,-22,-11,-4,1,-24
Mtb hypoxia rep,18,3,5,1,16,-4,-2,15,4,7,0,-6
ugtP null kill,11,5,24,7,1,2,2,10,13,2,9,-5
Autofluor counter,10045,23685*,3677,3608,3915,3664,6188,1967,2515,4208,4103,5424

43. Cc1ccc(-c2nnc(Nc3ccc(CC(N)=O)cc3)c3ccccc23)cc1S(=O)(=O)NCC1CCCO1 (configuration not stated)

compound no.,43
Mtb hypoxia rep growth,2
BJeLR lethal,2
RN4220 kill,1.3
PrP UTR inh,-9
Mtb hypoxia rep,-4
ugtP null kill,-1
Autofluor counter,.

The list goes on:
61. Cc1ccccc1OCC(=O)NC(Cc1c[nH]c2ccccc12)C(=O)O (configuration not stated)
62. NC(N)=NN=Cc1ccc(OS(=O)(=O)c2ccccc2)cc1
63. Cc1c(C=O)c2ccccn2c1C(=O)c1cccc([N+](=O)[O-])c1
64. CN(C)CCOC(=O)c1ccc(COc2ccccc2Br)o1

compound no.,61,62,63,64
Mtb hypoxia rep growth,5,6,13,-2
BJeLR lethal,-2,.,3,-3
RN4220 kill,2.2,5.4,0.3,0.6
PrP UTR inh,-6,.,-8,-26
Mtb hypoxia rep,11,17,2,3
ugtP null kill,5,-24,-1,-1
Autofluor counter,4186,.,5213,3657
